# Compound activity as filed in PubChem.
# NPYLR7 agonist: activates Aedes aegypti NPYLR7 receptor; HEK293T NPYLR7/Galpha15, GCaMP6s calcium fluorescence; activation, % at 10 µM; 270,000 tested, 0.15% active; AID 1259423; in the data active = activation above about 40%;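 note: 0% = vehicle and 100% = reference agonist at the receptor; some compounds past the cut are filed as inactive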
# NPYLR7 agonist max-min: recorded beside NPYLR7 agonist, whose call it bears; activation, %; measured here: Max-Min RFU normalised activation; some inactives read as strong as hits;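 span of the calcium signal over five minutes; 0% = vehicle and 100% = native peptide agonist; compound fluorescence can raise it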
# An asterisk follows results filed as active; & = joins results of further samples. This is a subset (hit frequency here may not be typical).
structure	NPYLR7 agonist	NPYLR7 agonist max-min
Cc1ccc(CN(CCc2ccccc2)C(=O)CN(CC2CCCO2)C(=O)C2CCCC2)o1 (stereo not drawn)	-1	2
N[C@@H]1c2ccccc2C2(CCN(C(=O)Cc3ccc4c(c3)OCO4)CC2)[C@H]1O	9	6
Cc1ccn2c(NC(=O)CCN3CCSC3=O)c(-c3ccc(F)cc3)nc2c1	0	2
Cn1c(=O)[nH]c(=O)c2c1nc(N1CCN(Cc3ccc(Cl)cc3)CC1)n2Cc1ccccc1Cl	-10	-9
CCc1cnc(CN(C)C(=O)NC(C)c2nc(C)cs2)s1 (stereo not drawn)	5	5
CCCCC(=Nc1ccccc1OC)C1=C(O)CC(c2ccccc2)CC1=O (stereo not drawn)	5	8
C=CCNC(=O)CN1CN(c2ccccc2)C2(CCN(S(=O)(=O)c3ccc(OC)cc3)CC2)C1=O	4	14
O=C(c1ccc(F)cc1)N1CCN(C(=O)c2cn[nH]c2-c2ccc(F)cc2)CC1	5	2
CCOc1ccc(-c2ccc(=O)n(CC(=O)NCc3ccc(F)cc3)n2)cc1	7	1
Cc1ccc(S(=O)(=O)NC(C)C2CCCO2)c2cccnc12 (stereo not drawn)	-3	-2
CC(=O)NCCNC(=O)c1nnc2n1CCN(CC(c1ccccc1)c1ccccc1)C2	9	6
O=C(OC1CCOC1=O)c1ccc(-c2ccccc2F)o1 (stereo not drawn)	5	3
CCC(CO)N(Cc1ccsc1)Cc1c(C)nn(C)c1Cl (stereo not drawn)	1	1
CCOC(=O)CNC(=O)N1CCC(n2cc(C3CCCC3)nn2)CC1	0	-6
Cc1cc(C)n(CC(=O)N(C)CC2CCCN(CCc3cccc(C(F)(F)F)c3)C2)n1 (stereo not drawn)	14	-2
COc1cccc(Cc2nsc(N(CCC(=O)NCCc3ccc(Cl)cc3Cl)C(C)C)n2)c1	5	6
CN(C)c1cccc(Nc2cc3c(cn2)nc(NCc2ccccc2)n3C)c1	11	-1
CCOC(=O)c1cc(-c2ccc(N3CCN(C(=O)c4cc(C)nn4C)CC3)cc2)n(-c2cccc(F)c2)n1	19	12
COc1ccc(-c2ccc(=O)n(CCNC(=O)Nc3cccs3)n2)cc1	6	6
CCC(NC(=O)Cc1nnc(N)s1)c1ccc(C)cc1C (stereo not drawn)	1	1
Cc1ccc(CSCCNC(=O)Cc2n[nH]c(=O)c3ccccc23)cc1	-15	-14
O=C(NC1CC(=O)N(CCc2ccccc2)C1)c1cc2ccccc2o1 (stereo not drawn)	2	1
CC(Nc1cccc(OCC(N)=O)c1)c1nc(C(C)(C)C)no1 (stereo not drawn)	-2	-3
CCSc1nc(CC(=O)N2CCC[C@H]2CO)cs1	23	15
COc1cc(C=CC(=O)Oc2ccc(Br)cc2)cc(OC)c1OC	-5	-5

# Gathered by group, the compounds so far containing an NH in an aromatic ring (three)
structure	NPYLR7 agonist	NPYLR7 agonist max-min
Cn1c(=O)[nH]c(=O)c2c1nc(N1CCN(Cc3ccc(Cl)cc3)CC1)n2Cc1ccccc1Cl	-10	-9
O=C(c1ccc(F)cc1)N1CCN(C(=O)c2cn[nH]c2-c2ccc(F)cc2)CC1	5	2
Cc1ccc(CSCCNC(=O)Cc2n[nH]c(=O)c3ccccc23)cc1	-15	-14

# (next part)
structure	NPYLR7 agonist	NPYLR7 agonist max-min
COc1ccc(Cl)c2sc(N(CCN(C)C)C(=O)c3cc(C)no3)nc12	1	1
O=S(=O)(NN=Cc1c(F)c(F)c(F)c(F)c1F)c1ccc(Br)cc1	4	2
CN(C)Cc1ccc(-c2cccc3cnccc23)nc1	8	5
CC(C)c1ccc(CN(C(=O)c2ccc(=O)n(C)n2)C2CC2)cc1	11	5
CN(C)c1ccc(N)cc1CN(Cc1ccco1)C(=O)c1ccc(F)cc1	-3	0
Cc1ccc(OCCN2CC[C@H](CO)[C@@H](O)C2)c(Cl)c1	3	1
CNC(=O)c1ccc(NC(=O)c2ccc(SC(F)(F)F)cc2)cc1	3	-3
Cc1nc(C2CC2)ncc1C(=O)NCC(c1ccco1)N1CCCC1 (stereo not drawn)	-1	-1
Cc1ccccc1C(=O)N1C(C(=O)N2CCCC2)COC12CCN(C(=O)c1ccc(Cl)cc1)CC2 (stereo not drawn)	3	13
COc1cc(-c2nc3ccc(Br)cn3c2NC2CCCCC2)ccc1O	11	10
COC(=O)c1ccccc1NC(=S)NC(NC(=O)C(C)C)C(Cl)(Cl)Cl (stereo not drawn)	-13	-19
Fc1ccc(-c2ccc(N3CCN(CCN4CCCC4)CC3)nc2)cc1Cl	-7	-9
CN(C)Cc1nc(C2(N)CCCCCC2)no1	0	-1
Cc1ccc(C2(O)CCN(C(=O)[C@]34CC[C@](C)([C@@H](O)C3)C4(C)C)CC2)nc1	7	2
CC(C)C1CN(C(=O)c2cccc(-n3cnnc3)n2)CCC(=O)N1CC1CC1 (stereo not drawn)	2	-19
COc1cccc(C(=O)Nc2ccc(Cl)cc2NC(C)=O)c1	8	3
CCc1nc2sc3c(c2c(=S)[nH]1)CCCC3	0&13	-3&3
COc1cc(OC)c(OC)cc1C=CC(=O)N1CCN(Cc2nc3ccccc3s2)CC1	-3	-4
CCn1c(=O)c2c(nc3n(CCO)c(C)c(C)n23)n(C)c1=O	-7	-12
CCn1ccnc1SCCS(=O)(=O)c1cccc(OC)c1	-6	-8
O=S(=O)(c1ccc(NN=C2CCCC2)nc1)N1CCCCC1	0	-4
COc1cc(C(=O)NC(c2ccccc2)c2ccccc2Br)cc(OC)c1OC (stereo not drawn)	-7	-10
Nc1nc(Nc2ccc(Cl)cc2)nc(NCCO)c1[N+](=O)[O-]	0	-2
COc1cccc2cc(C(=O)N3CCN(c4cc(N5CCCCC5)ncn4)CC3)oc12	-3	-5
Cc1ccc(C)c(C2=NN(C(=O)CN3CCC4(CC3)OCCO4)C(c3ccccc3Cl)C2)c1 (stereo not drawn)	21	18
O=C(Nc1cc(F)ccc1F)c1ccc(NC(=O)C2CC2)s1	-4	-8
CCn1nnc2c(=O)n(Cc3ccc(F)cc3)cnc21	1	16
CCOCCOc1ccc(C(=O)NC(C)(C)C)cc1	7	3
O=C1NC(=O)C2C1Sc1[nH]c(=O)sc1C2c1ccco1 (stereo not drawn)	13	6
O=C(NCc1cccnc1N1CCc2ccccc2C1)c1ccco1	3	-1
COCc1ccc(CN2CCN(c3nc(-c4ccccc4)nc4c3CCC4)CC2)o1	2	-2
COc1ccc(OC)c(N2CC(c3nc4ccccc4n3Cc3ccc(F)cc3)CC2=O)c1 (stereo not drawn)	-2	0
Cc1ncc2c(c1CNCC1(O)CCCN(CC3CCC3)C1=O)CCNC2 (stereo not drawn)	18	13
CCc1ccc(-c2cc3c(=O)n(Cc4ccc(Cl)cc4)ccn3n2)cc1	1	-5
Cc1nn(C(C)(C)C)c(OC(=O)CC(C)C)c1S(=O)(=O)c1ccccc1	1	36
COc1ccc(OC)c(NC(=S)NC(C)C(c2cccs2)N2CCOCC2)c1 (stereo not drawn)	16	8
Cc1nc(C)c(C(=O)NCCOc2ccc3nnc(-c4ccccc4Cl)n3n2)s1	-12	-16
Cc1noc(-c2cccc(C(F)(F)F)c2)c1C(=O)NCC1COC(C)(C)O1 (stereo not drawn)	-3	8
NNc1ccc(Oc2ccccc2)c(S(=O)(=O)O)c1	-11	-16
CCC(C)(C)c1ccc(CC(C)CN2C[C@@H](C)O[C@@H](C)C2)cc1 (stereo partly drawn)	-5	-10
O=C(NN1CC(C(=O)O)CC1=O)c1ccccc1 (stereo not drawn)	-8	-14
C=CCN1CC(C(=O)N2CCCN(C)C3(CCN(C)CC3)C2)CC1=O (stereo not drawn)	8	5
Cc1ccc(Nc2[nH]c(=O)c3ccccc3c2C(=O)c2ccncc2)cc1	-7	-9
Cc1cccc(CN2CCN(C(=O)C(=O)c3ccco3)C(C)C2=O)c1 (stereo not drawn)	4	-8
O=C(Nc1cccc(C2SCC(=O)N2c2ccc3c(c2)CCC3)c1)c1ccc(F)cc1 (stereo not drawn)	-1	4
CN(C)S(=O)(=O)c1ccc(C(=O)N2CCN(S(=O)(=O)c3ccc(Cl)cc3)CC2)cc1	-7	-10
CC(Sc1nncn1C1CC1)C(=O)Nc1ccccc1Sc1ccccc1 (stereo not drawn)	-1	5
COc1ccc(-c2cc(C(=O)N3CCN(C(=O)N(C)C)CC3)c(C)n2-c2ccccc2Cl)cc1	-6	2
CC(=O)NC(C(=O)O)C1CCCC1 (stereo not drawn)	-1	4
COCCN1C(=O)c2ccccc2[C@H](C(=O)NC(CCC(=O)OC(C)(C)C)C(N)=O)[C@@H]1c1cccnc1 (stereo partly drawn)	2	-9

# Entries from the list above that have an aryl thioether with sulfur outside any ring:
structure	NPYLR7 agonist	NPYLR7 agonist max-min
CCSc1nc(CC(=O)N2CCC[C@H]2CO)cs1	23	15
CNC(=O)c1ccc(NC(=O)c2ccc(SC(F)(F)F)cc2)cc1	3	-3
CCn1ccnc1SCCS(=O)(=O)c1cccc(OC)c1	-6	-8
CC(Sc1nncn1C1CC1)C(=O)Nc1ccccc1Sc1ccccc1 (stereo not drawn)	-1	5

# Further structures.
structure	NPYLR7 agonist	NPYLR7 agonist max-min
CCc1oc(C(=O)N(C)Cc2n[nH]c3c2CCC3)cc1CN1CCCC1	-4	-11
CCCOCCNc1nc(C)nc2oc(C)nc12	13	4
COc1ccc(C(N)=NOC(=O)C2CCC(=O)N2S(=O)(=O)c2ccc(C)cc2)cc1OC (stereo not drawn)	-13	-16
c1ccc(Cn2c(-c3ccccc3)csc2=Nc2ccccc2)cc1	-11	-16
CC1CCC(NS(=O)(=O)Cc2ccc(C#N)cc2)CC1 (stereo not drawn)	2	2
CCN1CCn2c1nc(N1CCCCC1)nc2=O	8	6
COc1ccc(NC2CCCN(C(=O)CSc3ccccc3)C2)cc1OC (stereo not drawn)	3	1
Cc1cnc2c(c1SCC(=O)N1CCC(C)CC1)c(=O)n(C)c(=O)n2C	8	15
CCc1ccc2nc(N(Cc3ccccn3)C(=O)c3cc(C)nn3CC)sc2c1	1	7
Cc1ccccc1N1CCCn2c1nc1c2c(=O)n(CC(C)C)c(=O)n1C	7	2
CC(NCC(C)(C)CN(C)C)C(=O)NC12CC3CC(CC(C3)C1)C2 (stereo not drawn)	0	18
CCNC(=O)C1(C)CCN(Cc2csc(-c3ccccc3)n2)C1 (stereo not drawn)	2	6
CCOC(=O)c1[nH]c(C)c(CC)c1C	8	7
CCN1CCCC1CNC(=O)c1cc2nc(-c3ccc(C)cc3)cc(C(F)(F)F)n2n1 (stereo not drawn)	-11	-18
Cn1ccnc1CN(Cc1nc2c(s1)CCCC2)C1CC1	6	4
Cc1cc(C)cc(OCCN(C)C(=O)CCNC(=O)C2CC2C)c1 (stereo not drawn)	2	1
CCCCCCNC(=O)c1cc(-c2ccccc2)n(-c2ccc(F)cc2)c1C	7	14
COCCNC(=O)Cn1nc2c(c1NC(=O)c1ccc(F)cc1F)CSC2	-2	7
CC1(C(=O)NS(=O)(=O)c2ccccc2Cl)CCN1C(=O)Cc1cc(F)ccc1F (stereo not drawn)	1	0
O=C(Nc1ccc(NS(=O)(=O)c2ccc3c(c2)OCCCO3)cc1)c1cc(F)cc(F)c1	-2	-3
O=C(NCc1cccnc1N1CCOCC1)c1ccc(Cl)s1	9	3
COc1ccc(C2(CNCc3c(C(=O)N4CCCC4)nc4ccccn34)CCCC2)cc1	13	0
CN(CCc1cn[nH]c1)CC(=O)Nc1cnccn1	0	14
Cc1nnc(SCCCNC(=O)c2cc(-c3ccccc3)nn2C)s1	11	4
CC1CN(C(=O)CCC(=O)N2CCN(S(=O)(=O)c3ccc(Cl)cc3)CC2)CC(C)O1 (stereo not drawn)	2	6

# Given as labelled records: 2 of the compounds above.
Cc1nnc(SCCCNC(=O)c2cc(-c3ccccc3)nn2C)s1
  NPYLR7 agonist = 11
  NPYLR7 agonist max-min = 4

CC1CN(C(=O)CCC(=O)N2CCN(S(=O)(=O)c3ccc(Cl)cc3)CC2)CC(C)O1 (stereo not drawn)
  NPYLR7 agonist = 2
  NPYLR7 agonist max-min = 6

# The listing continues.
structure	NPYLR7 agonist	NPYLR7 agonist max-min
CN(C)c1ccc(NC(=O)c2cccs2)cc1CN(C(=O)c1ccc(F)cc1)C1CC1	3	9
Cc1ccc(C(O)C#CC23CC4CC(CC(C4)C2)C3)o1 (stereo not drawn)	11	14
CN(CC(=O)Nc1sc2c(c1C#N)CCCC2)Cc1ccc(Br)s1	-7	-1
COc1cccc2c1OCC(C1CC(=O)Nc3[nH]ncc31)=C2 (stereo not drawn)	16	5
C=CCNC(=S)Nc1ccc(SC(F)F)cc1	1	0
CCN1CCCC1CNC(=O)c1ccc(Nc2cccc(C(F)(F)F)c2)nc1 (stereo not drawn)	-5	-9
COC(=O)C1=C(C)N=c2s/c(=C\c3cccnc3)c(=O)n2C1c1ccccc1 (stereo not drawn)	0	-1
Brc1ccc(Nc2nc(-c3ccccc3)c3cc(Br)ccc3n2)cc1	-4	-10
C=CCn1c(=NC(=O)C2=COCCO2)sc2cccc(OC)c21	-3	-4
CCn1nc(C(C)(C)C)cc1C(=O)N1CCC(Oc2ccc(C(F)(F)F)cc2)CC1	2	9
CCOc1cc2c3c(c1)C1(C(=O)N3C(C)(C)C=C2C)c2ccc(O)cc2OC(=N)C1C#N (stereo not drawn)	-3	-8
COCCn1cc(C(=O)Nc2ccccc2)c2nn(-c3ccccc3)c(=O)c-2c1	6	6
CCOC(=O)C1=C(COC(=O)CSc2nc(C)cc(C)n2)NC(=O)NC1C (stereo not drawn)	1	0
CCN(CC)[P+](C)(c1c(C)nc2ccccn12)N(CC)CC	10&2	-2&0
COc1ccc(NS(=O)(=O)c2c(C)c(C)cc(C)c2C)c(C(=O)NCc2ccccc2)c1	20	8
